Screening results from PubChem.
miR-21 FLuc = raises the signal of a miR-21 reporter. 340,000 tested, under 10 active. Potency, µM (titrated, usually from 38.3 µM), for inactives: top-dose reporter change, positive = more light. HeLa miR-21 FLuc reporter, luciferase, 48 h; active = well fitted rising curve with a large enough effect; inconclusive = small, poorly fitted or top-dose-only effect; inactive = no such curve, though single readings can be large or run the other way;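 also: % of control where 0% means no effect; miR-21 action dims this reporter so a rising signal means less miR-21 action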
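HeLa cells endogenously expressing miR-21, stably carrying CMV-driven firefly luciferase with a downstream miR-21 binding site, 2000 cells/well. Titrations up to approximately 40 uM, 48 hours; luciferase luminescence read.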
GLA inh pH 4.5 = inhibitors of human alpha-galactosidase A at pH 4.5; P06280; purified enzyme, 4-MU-alpha-Gal fluorescence, pH 4.5; activity change, negative = inhibition, % at 105 µM; 230,000 tested, under 10 active; inconclusive = small, poorly fitted or top-dose-only inhibition, or a rising curve; inactive = flat fitted curve, though single readings scatter; no compound was filed as active;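 also: 0% = full activity with enzyme and -100% = basal without enzyme; dose as in the result columns while the protocol names 77 µM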
Target sequence (P06280 whole entry, looked up): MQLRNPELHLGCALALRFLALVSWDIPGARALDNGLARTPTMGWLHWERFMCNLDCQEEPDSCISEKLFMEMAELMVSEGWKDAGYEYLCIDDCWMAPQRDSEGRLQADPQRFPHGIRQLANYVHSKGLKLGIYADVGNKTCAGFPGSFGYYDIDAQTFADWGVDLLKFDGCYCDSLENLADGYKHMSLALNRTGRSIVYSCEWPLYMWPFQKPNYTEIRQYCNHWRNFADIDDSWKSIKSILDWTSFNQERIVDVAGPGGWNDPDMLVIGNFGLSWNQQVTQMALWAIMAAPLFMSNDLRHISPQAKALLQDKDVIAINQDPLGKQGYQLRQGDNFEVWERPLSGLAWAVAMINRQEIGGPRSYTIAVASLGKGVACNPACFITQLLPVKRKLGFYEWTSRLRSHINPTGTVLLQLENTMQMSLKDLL
Rango complex inh = prevents formation of the Rango-importin beta complex. Q14974. Rango CFP/YFP FRET sensor + importin beta, 45 min. 340,000 compounds, 0.031% hits. AID 540263. Potency, µM (doses to about 92.2 µM), for inactives: at the top dose inhibition of complex formation; active = rising FRET ratio curve, often small or poorly fitted; inconclusive = mostly compound fluorescence or quenching in the first reads; inactive = flat curves in all reads;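 also: potency is read from the fitted curve at half-maximal effect; 0% = DMSO wells and 100% = buffer wells lacking importin beta; nearly all actives have a fitted effect of over 15% in size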
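FRET biosensor (snurportin 1 IBB flanked by EYFP and cerulean), 50 nM, with compound 5 min, then 0.125 microM importin beta in PBS, 1 mM DTT, 0.02% Tween-20, 0.1% BSA. CFP/YFP ratio read after 45 min at room temperature; pre-read flags interference.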
Rango release inh = inhibition of RanGTP-driven Rango-importin beta dissociation; O95149+P62826; Biochemical FRET Rango-importin beta, RanGTP-induced dissociation; Potency, µM (top dose mostly 46.1 µM), without a hit: at the highest dose activity change, negative = inhibition; 340,000 compounds, 0.071% hits; AID 540253; active means falling FRET ratio curve, often poorly fitted, with flat reads before Ran was added; inconclusive means other falling curves, or compound fluorescence or quenching; inactive means flat or rising ratio curve;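 also: potency is read from the fitted curve at half-maximal effect; % of control where 0% means no effect; nearly all actives have a fitted effect of over 45% in size; -100% = wells without RanGTP and RCC1; the record marks most hits as doubtful in a second field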
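Recombinant Rango FRET biosensor (EYFP–snurportin 1 IBB–cerulean CFP10) at 0.1 uM premixed with 0.25 uM importin beta in PBS, 1 mM DTT, 0.02% Tween-20, 0.1% BSA. Compound added 5 min; RanGTP-RCC1 (0.6 uM Ran, 2 mM GTP, 0.2 uM RCC1) then triggers release, read at 45 min.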
Numbers without * were called inactive; ? = inconclusive; / = no result given; & = joins results of further samples; [ ] = another dose, or the depositor's remark. Not all compounds are listed; the hit share may differ from the screen's.

Values run as follows: miR-21 FLuc, GLA inh pH 4.5, Rango complex inh, Rango release inh
> CN(C)C(=O)C(NC(=O)c1ccccc1)=C(Cl)Cl
 : 0%, -5, 0.2%, 6%
> O=C(CCc1nc2ccccc2c(=O)[nH]1)NCc1ccccn1
 : 3%, 1, -1.1%, -1%
> COCCN=C1N[C@@H](c2ccccc2)C(C(=O)OC)=C(C)N1Cc1ccccc1
 : -1%&8%, /, ?, -7%
> Cc1cn(C2OC(COC(=O)c3ccccc3)C(OC(=O)c3ccccc3)C2OC(=O)c2ccccc2)c(=O)[nH]c1=O (stereo not drawn)
 : 7%, -13, 0.8%, 0%
> CCCCC(NC(=O)Cc1c(C)c2cc3c4c(oc3cc2oc1=O)CCCC4)C(=O)O (stereo not drawn)
 : 0%, /, -4.0%, -18%
> O=C(N/N=C/c1cc2ccccc2nc1Cl)c1ccncc1
 : 5%, -4, 1.3%, 6%
> Cc1cc(=O)oc2cc(Oc3ncccc3[N+](=O)[O-])ccc12
 : -2%, 12[21.1 µM], -2.7%, 25%
> O=C1Nc2ccccc2N(O)N1c1ccc(S(=O)(=O)N2CCCCCC2)cc1
 : -13%, 7, -4.4%, 5%
> COc1ccccc1NS(=O)(=O)c1cccc(C(=O)N/N=C/c2c(CO)cnc(C)c2O)c1
 : /, /, ?, ?
> O=C(CCNS(=O)(=O)c1ccc(Br)s1)Nc1ccc(Cl)cc1
 : 10%, 0, -1.7%, 1%
> CCOc1ccccc1C(=O)N1CCN(C(c2ccccc2)c2ccccc2)CC1
 : 0%, -9, 3.4%, 0%
> O=C(c1cc(COc2ccccc2)on1)N1CCCC(CN2CCOCC2)C1 (stereo not drawn)
 : -16%, /, -1.2%, 3%
> O=C(Nc1c[nH]c(=O)[nH]c1=O)c1cc([N+](=O)[O-])cc([N+](=O)[O-])c1
 : 6%, /, 4.6%, -2%
> Cc1ccc[n+](CC(=O)c2ccc(Br)cc2)c1C
 : -8%, /, -0.6%, 11%
> CC(C)=NNc1nc(-c2ccc([N+](=O)[O-])cc2)cs1
 : -1%, -5, 5.5%, -16%
> CS(=O)(=O)N1N=C(c2ccccc2)CC1c1ccc2c(c1)OCO2 (stereo not drawn)
 : -52%, 0, ?, -30%
> CCc1ccc2c(c1)C(=O)C(=O)N2CC(=O)Nc1ccc(NC(=O)c2ccccn2)cc1
 : -20%, -18, 0.8%, 8%
> COC(=O)C(NC(=O)CCc1c(C)nc2ncnn2c1C)C(C)C (stereo not drawn)
 : -3%, 4, 5.6%, 9%
> COc1ccc(-c2cc(C(=O)N3CCN(c4ccccc4F)CC3)c3ccccc3n2)c(OC)c1
 : 1%, /, 2.5%, 21%
> COc1ccc([C@H]2CC(=O)C=C(c3ccc(SC)cc3)C2)cc1
 : /, /, 0.1%, 5%

In another format: entries from further up.
| SMILES | miR-21 FLuc | GLA inh pH 4.5 | Rango complex inh | Rango release inh |
| --- | --- | --- | --- | --- |
| Cc1cc(=O)oc2cc(Oc3ncccc3[N+](=O)[O-])ccc12 | -2% | 12[21.1 µM] | -2.7% | 25% |
| O=C1Nc2ccccc2N(O)N1c1ccc(S(=O)(=O)N2CCCCCC2)cc1 | -13% | 7 | -4.4% | 5% |
| COc1ccccc1NS(=O)(=O)c1cccc(C(=O)N/N=C/c2c(CO)cnc(C)c2O)c1 | / | / | ? | ? |
| O=C(CCNS(=O)(=O)c1ccc(Br)s1)Nc1ccc(Cl)cc1 | 10% | 0 | -1.7% | 1% |
| CCOc1ccccc1C(=O)N1CCN(C(c2ccccc2)c2ccccc2)CC1 | 0% | -9 | 3.4% | 0% |
| O=C(c1cc(COc2ccccc2)on1)N1CCCC(CN2CCOCC2)C1 (stereo not drawn) | -16% | / | -1.2% | 3% |
| O=C(Nc1c[nH]c(=O)[nH]c1=O)c1cc([N+](=O)[O-])cc([N+](=O)[O-])c1 | 6% | / | 4.6% | -2% |
| Cc1ccc[n+](CC(=O)c2ccc(Br)cc2)c1C | -8% | / | -0.6% | 11% |
| CC(C)=NNc1nc(-c2ccc([N+](=O)[O-])cc2)cs1 | -1% | -5 | 5.5% | -16% |
| CS(=O)(=O)N1N=C(c2ccccc2)CC1c1ccc2c(c1)OCO2 (stereo not drawn) | -52% | 0 | ? | -30% |
| CCc1ccc2c(c1)C(=O)C(=O)N2CC(=O)Nc1ccc(NC(=O)c2ccccn2)cc1 | -20% | -18 | 0.8% | 8% |
| COC(=O)C(NC(=O)CCc1c(C)nc2ncnn2c1C)C(C)C (stereo not drawn) | -3% | 4 | 5.6% | 9% |
| COc1ccc(-c2cc(C(=O)N3CCN(c4ccccc4F)CC3)c3ccccc3n2)c(OC)c1 | 1% | / | 2.5% | 21% |
| COc1ccc([C@H]2CC(=O)C=C(c3ccc(SC)cc3)C2)cc1 | / | / | 0.1% | 5% |

Next section.
Values run as follows: miR-21 FLuc, GLA inh pH 4.5, Rango complex inh, Rango release inh
> CC(C)c1cc(O)c(-c2ccccc2)c(=O)n1-c1ccc(Cl)cc1
 : -5%, 0, 3.0%, 7%
> COc1ccc(-c2ncn(CCC#N)c2[N+](=O)[O-])cc1
 : -13%, -2, -0.1%, -5%
> COc1ccc2nc(NC(=O)C3CCN(C(=O)c4ccco4)CC3)sc2c1
 : -20%, /, 3.3%, -7%
> O=C(CN1CCN(S(=O)(=O)c2ccc(Cl)cc2)CC1)NC1CCCC1
 : -1%, /, 0.2%, 1%
> Cn1c(C(=O)NC2CCCCC2)cc2c(=O)n3ccccc3nc21
 : -24%, /, 1.0%, 1%
> Cc1cc(N)n(-c2ccc([N+](=O)[O-])cc2)n1
 : 0%, 0, 4.6%, 0%
> COc1ccc(-c2nnc(SC(C(=O)c3c[nH]c4ccccc34)c3ccccc3)n2N)cc1OC (stereo not drawn)
 : 0%, -21, ?, -9%
> O=C(COC(=O)/C=C/c1cccc(Cl)c1)NC1CCCC1
 : /, /, -1.0%, 1%
> O=C(N/N=C/c1ccc(F)c(F)c1)c1cc2c(s1)-c1ccccc1CC2
 : -8%, 25, 4.0%, -9%
> Cc1cc(NS(=O)(=O)c2ccc(NC(=O)Cc3ccc([N+](=O)[O-])cc3)cc2)no1
 : -8%, /, 2.0%, -3%
> C[C@H](CO)N1C[C@H](C)[C@@H](CN(C)Cc2ccc3c(c2)OCO3)Oc2ccc(NS(C)(=O)=O)cc2C1=O
 : /, /, -1.1%, 27%
> CCn1nc(C)cc1C(=O)n1nc(C)c(Sc2ncccn2)c1C
 : 7%, 5, 5.4%, -1%
> CN(c1ccccc1)S(=O)(=O)c1cccc(NC(=O)CCNC(=O)c2ccccc2)c1
 : /, /, 1.1%, -10%
> O=C(CSc1nnc(COc2ccccc2)n1Cc1ccco1)NCc1ccco1
 : 0%, -2, -4.5%, -16%
> CCCN(CC1CCCO1)C(=O)c1cc(COc2ccc(F)cc2F)on1 (stereo not drawn)
 : -2%, /, -0.5%, -1%
> COc1ccc(-c2sc3ccc(OC)cc3c2-c2ccc(OC)nc2)cc1
 : /, /, 1.3%, 2%
> COc1ccc(/C(N)=N/OC(=O)c2cc(-c3ccccc3)nc3ccccc23)cc1
 : -4%, -1, 6.4%, -8%
> CCC(=O)c1ccc(OCC(=O)N2CCN(C(=O)c3ccccc3)CC2)cc1
 : /, /, -2.3%, -11%
> Cc1ccc(NC2=C(C(=O)c3ccccc3)N(C)S(=O)(=O)c3ccccc32)cc1
 : 7%, -5, ?, -2%
> COc1ccc(/C=N/NC(=O)c2ccc(N(C)S(=O)(=O)c3ccccc3)cc2)cc1OC
 : 1%, -3, 0.2%, 1%
> c1cncc(-c2nnc(-c3ccco3)o2)c1
 : -18%, 5, -5.1%, -3%
> O=C(COC(=O)Cc1ccc(Br)cc1)NCc1cccs1
 : /, /, -0.5%, 1%
> Cc1ccc(OCC(=O)Nc2ccc(S(=O)(=O)N3CCCCC3)cc2)c([N+](=O)[O-])n1
 : 0%, -4, 4.3%, 10%
> Cc1cc(C)n(-c2ccc(C(=O)OCC(=O)NCc3ccco3)cc2)n1
 : -5%, -4, -0.9%, -1%
> COc1ccc(Cl)cc1C(=O)NC(C)C
 : -2%, -20, -1.1%, -13%
> Cc1ccc(C(=O)Nc2nnc(-c3ccc(C(C)(C)C)cc3)s2)cc1
 : -17%, ?, 1.6%, 28%
> O=C(Nc1ccc(F)cc1F)c1ccc(S(=O)(=O)N2CCCCC2)cc1
 : -3%, /, 4.7%, 12%
> Cc1cc(NC(=O)CSc2nnc(C)o2)no1
 : 0%, /, -2.7%, -11%
> c1ccc(-n2cc(CN3CCC(N4CCOCC4)CC3)c(-c3ccc4c(c3)OCO4)n2)cc1
 : -12%, -1, 8.4%, -9%
> CCOC(=O)c1cccc(NC(=O)Cn2cnc3c2c(=O)n(C)c(=O)n3C)c1
 : -2%, -6, 0.2%, -2%
> Clc1cccc(Cl)c1NC1=NCCN1
 : 1%, -1&-16&1&11, /, /
> COc1cccc(COC(=O)C2CCN(S(=O)(=O)c3ccc(Cl)cc3)CC2)c1OC
 : /, /, 1.7%, -17%
> N#CCC(=O)N1CC2(CC(c3cccc(NC(=O)COc4ccc(Cl)cc4)c3)=NO2)C[C@@H]1C(N)=O (stereo partly drawn)
 : -1%, -2, -1.7%, 8%
> CCOC(=O)N1CCN(c2c(Nc3cc(C)[nH]n3)c(=O)c2=O)CC1
 : -1%, -3, 3.2%, 21%
> C=CCNC(=O)CN1CCN(C(c2ccccc2)c2ccccc2)CC1
 : 2%, /, 1.3%, 3%
> Cc1cc(C)cc(NC(=O)C2CCN(c3cnccn3)CC2)c1
 : -3%, -2[21.1 µM], -1.8%, 2%
> CS(=O)(=O)N(CC(=O)Nc1ccccc1F)C1CCCCC1
 : -1%, /, 9.1%, -1%
> COc1ccc(CN2CCNC(=O)C2CC(=O)NCCCC2CCCC2)c(C)c1C (stereo not drawn)
 : -16%, /, -0.9%, 2%
> CC(=O)N(C)c1ccc(NC(=O)c2ccccc2C(=O)O)cc1
 : -6%, -2, 5.7%, 0%
> CC(C)[C@H](NC(=O)c1ccccc1F)C(=O)OCCN1C(=O)c2ccccc2C1=O
 : /, /, -2.4%, -4%

Remaining list, next part.
Short keys – A = miR-21 FLuc; B = GLA inh pH 4.5; C = Rango complex inh; D = Rango release inh
> CCn1c(=O)c([N+](=O)[O-])c(NCCc2ccc(OC)c(OC)c2)c2ccccc21
  A: 18%; B: 5; C: -2.7%; D: -1%
> CCNC(=S)NNC(=O)c1cc(C)nc2ccccc12
  A: 0%; B: 4; C: 4.2%; D: 15%
> CC1CC(C)CN(CCCNC(=O)Cn2ncn3cccc3c2=O)C1 (stereo not drawn)
  A: 1%; B: -4; C: -0.1%; D: 5%
> COc1cc2sc3ccc(-c4ccc(CN5CCOCC5)cc4)cc3c(=O)c2cc1OC
  A: /; B: /; C: ?; D: ?
> Cc1ccc(C(=O)NCC(c2ccco2)N2CCc3ccccc32)cc1 (stereo not drawn)
  A: /; B: /; C: 6.4%; D: -5%
> CC1CC(C)CN(c2ncc3c(n2)CC(c2ccc(Cl)cc2)CC3=O)C1 (stereo not drawn)
  A: -4%; B: 9; C: -0.5%; D: -13%
> CCN(C(=O)CSc1nnc(-c2cccs2)n1N)c1c(N)n(Cc2ccccc2)c(=O)[nH]c1=O
  A: /; B: /; C: 0.0%; D: -1%
> CCN1CCN(CCOc2ccccc2-c2ccccc2)CC1
  A: -8%; B: -2; C: -0.7%; D: 1%
> Cc1cc(C(F)(F)F)nc(SCCN2CCOCC2)c1C#N
  A: -8%; B: -26; C: ?; D: -28%
> CN1CCCC(OC(=O)c2ccccc2Br)C1 (stereo not drawn)
  A: 0%; B: /; C: 1.9%; D: -12%
> CCN(CC(=O)Nc1cc(S(=O)(=O)N2CCCCC2)ccc1Cl)Cc1ccccc1
  A: /; B: /; C: 0.7%; D: 4%
> Cc1cccc(OCCSc2ncnc3nc[nH]c23)c1
  A: -7%; B: 5; C: 1.3%; D: 4%
> CCCNCCC(c1ccco1)c1ccccc1OC (stereo not drawn)
  A: 0%; B: -10; C: -0.6%; D: -1%
